Menin MLL FP FL = inhibitors of human menin-MLL interaction, wild-type MLL peptide; Fluorescence polarization, fluorescein-MLL peptide displacement from menin; FP activity change, % at 61.4 µM; 290,000 tested, under 10 active; inconclusive = falling polarisation curve, or a change in total fluorescence; inactive = total fluorescence flat and polarisation flat or rising; no compound was filed as active; the % refers to the polarisation; negative = inhibition;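 note: % of control where 0% means no effect; inhibitors lower the polarisation; unlabelled MLL peptide was the positive control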
Sfp inh = inhibitors of Bacillus subtilis Sfp phosphopantetheinyl transferase | Biochemical Sfp PPTase activity, qHTS | Q9F4F7 | AID 1490 | 3.5% of 310,000 active | Potency, µM, for the others: max response, negative = inhibition, actives largely listed as inhibitors; active = well fitted inhibition curve with a large enough effect; inconclusive = small, poorly fitted or top-dose-only effect, or another doubt; inactive = no such curve, though single readings can be large or run the other way;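 note: the enzyme is Sfp with the accession as filed and its product quenches rhodamine fluorescence; potency is the fitted concentration of half-maximal effect; 0% = enzyme reaction without inhibitor and -100% = no enzyme wells; top concentration of the series not given in the record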
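Fluorescence-quenching assay with 15 nM Sfp, 5 uM rhodamine-CoA and 12.5 uM BHQ-2-labelled ybbR peptide in pH 7.6 Hepes/MgCl2 buffer. Enzyme was pre-incubated with compound for 15 min at room temperature. Rate was taken from the 30-min fluorescence change (525/598 nm).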
TRPV1 PAM = human TRPV1 potentiation; Q8NER1; TRPV1-expressing cells, Fluo-8 calcium influx, capsaicin EC20 potentiation; host cell line not named in the record; control for the full effect not named in the record; potentiation, % at 8.33 µM; 0.02% of 320,000 active; AID 540277; active means potentiation above 80%; inconclusive means 30% to 80%; inactive means below 30%; note: 0% is about no effect
Target sequence (Q8NER1 whole entry, looked up): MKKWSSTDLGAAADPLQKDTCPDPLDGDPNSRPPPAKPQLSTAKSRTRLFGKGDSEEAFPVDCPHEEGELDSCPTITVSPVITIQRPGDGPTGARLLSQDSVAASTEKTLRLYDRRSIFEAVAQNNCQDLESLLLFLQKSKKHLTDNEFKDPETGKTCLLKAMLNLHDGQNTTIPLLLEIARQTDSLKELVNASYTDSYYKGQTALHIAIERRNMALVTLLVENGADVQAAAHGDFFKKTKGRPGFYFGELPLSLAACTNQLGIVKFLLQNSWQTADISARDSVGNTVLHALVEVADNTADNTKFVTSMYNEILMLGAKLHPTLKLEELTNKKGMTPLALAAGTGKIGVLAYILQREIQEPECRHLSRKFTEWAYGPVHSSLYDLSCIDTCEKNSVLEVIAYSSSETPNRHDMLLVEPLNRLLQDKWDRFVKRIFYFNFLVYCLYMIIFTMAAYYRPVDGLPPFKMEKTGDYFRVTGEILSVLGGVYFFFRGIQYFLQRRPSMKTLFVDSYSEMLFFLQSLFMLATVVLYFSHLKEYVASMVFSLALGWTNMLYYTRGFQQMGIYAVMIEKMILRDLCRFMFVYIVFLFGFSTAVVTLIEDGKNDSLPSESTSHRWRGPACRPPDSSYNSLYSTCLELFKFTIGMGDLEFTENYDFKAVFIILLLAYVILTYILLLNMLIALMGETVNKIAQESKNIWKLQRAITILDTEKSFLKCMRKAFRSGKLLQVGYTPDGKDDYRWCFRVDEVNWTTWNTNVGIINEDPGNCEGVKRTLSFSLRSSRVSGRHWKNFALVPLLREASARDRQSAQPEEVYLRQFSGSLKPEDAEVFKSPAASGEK
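Fluo-8 calcium influx in TRPV1-expressing cells, kinetic read (ex 480/em 520 nm). Compound added and read 3 min for agonist activity, followed by capsaicin at EC20 final and 2 min further read for enhancement.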
gsp ag = gsp mutant agonism | gsp mutant cells, cAMP HTRF, 30 min; control for the full effect not named in the record | Potency, µM (series often up to 76.9 µM), inactives show top-dose activation (cAMP increase), actives largely listed as activators | 0.13% of 340,000 active | AID 624287; active = well fitted activation curve with a large enough effect; inconclusive = small, poorly fitted or top-dose-only effect, or another doubt; inactive = no such curve, though single readings can be large or run the other way; cell line not stated here;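 note: phosphodiesterase inhibitor Ro 20-1724 added with compounds to block cAMP breakdown; potency is the fitted concentration of half-maximal effect; nearly all actives have a fitted effect of over 60% in size; about a fifth of the inactives were tested at one dose only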
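Cells stably selected in G418 were plated at 2000/well, grown 16-24 hr, then given compounds in DMSO with the PDE inhibitor […] (300 uM solution added) for 30 min at 37C; cAMP was read by HTRF.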
TRPML1 inh = inhibitors of human TRPML1 channel. Q9GZU1. TRPML1-inducible cells, Ca2+ dye fluorescence, FDSS; hits give low values; inhibition of EC80 agonist-evoked calcium signal. activity change, negative = inhibition, % (concentration not given with the values). 0.02% of 390,000 active. AID 624415; in the data active means activity change below about -50%; inconclusive means about -30% to -50%; inactive means above about -30%;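 note: stimulus is agonist 54-4 at its EC80 concentration; % is set by controls: 0 for no effect and ±100 for the full control effect; compound concentration not given in the record; the text of the record puts the active cut at -80%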
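Tet-induced TRPML1-DL cells loaded with Ca8 no-wash calcium dye were read kinetically on FDSS. Compound addition was followed by EC80 agonist 54-4 (4 uM final); inhibition was read over 110 s.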
ClpP mod = qHTS Assay for Activators of ClpP; purified B. subtilis ClpP, FRET peptide cleavage, 20 min; Potency, µM (highest dose often 57.5 µM), for inactives: top-dose activity change, negative = active; ATP-dependent Clp protease proteolytic subunit (Bacillus subtilis (strain 168)), P80244; 1.9% of 340,000 active; active = well fitted falling curve with a large enough effect; inconclusive = small, poorly fitted or top-dose-only effect; inactive = no such curve, though single readings can be large or run the other way; note: potency is the fitted concentration of half-maximal effect; the source files actives as falling curves though it sought activators and does not explain the sign; nearly all actives have a fitted effect of over 65% in size; many hits overshoot -100%
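ClpP 10 microg/mL final, pH 8 Tris/KCl buffer with BSA, glycerol, Tween-20; compound pinned in; FRET-FV substrate; RT 20 min; Ex320/Em430; ΔFRET vs ADEP 5.8 microM, DMSO, no enzyme.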
gsp antag = antagonists of gsp mutant (McCune-Albright syndrome). gsp-mutant cells, cAMP HTRF, 30 min; control for the full effect not named in the record. Potency, µM (doses to about 76.9 µM), without a hit: top-dose activity change, negative = inhibition, hits mostly inhibitors. AID 624288. 0.4% of 340,000 active; active = falling curve of any shape with a large fitted effect; inconclusive = falling curve, mostly with a smaller effect; inactive = flat or rising curve; cell line not stated here;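 note: intracellular cAMP measured with PDE inhibitor Ro 20-1724 present during compound exposure; potency is the fitted concentration of half-maximal effect; % is set by controls: 0 for no effect and ±100 for the full control effect; nearly all actives have a fitted effect of over 65% in size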
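Measurement of cellular cAMP by homogeneous time-resolved fluorescence following a 30 min compound exposure at 37C. The PDE inhibitor […] was present throughout; the assay buffer was DPBS with 0.05% BSA and 0.005% Tween 20.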
The depositor's hits bear a star; ? = inconclusive; . = not tested or not shown; & = joins results of further samples; [ ] = remark or other dose.

SMILES	Menin MLL FP FL	Sfp inh	TRPV1 PAM	gsp ag	TRPML1 inh	ClpP mod	gsp antag
O=C(CCNC(=O)c1ccc(Br)cc1)NNC(=O)COc1ccccc1F	.	.	.	-24%	7	?	1%
Cc1ccc(S(=O)(=O)n2c([N+](=O)[O-])cnc2C)cc1C	2.4	6%	-7	7%[15.4 µM]	-22	.	12%
O=C(Nc1nnc(-c2ccc(F)cc2)o1)c1ccc(S(=O)(=O)N2CCOCC2)cc1	.	0%	-3	16%	53	-1.0%	-24%
COCC(C)NC(=O)Cc1ccc(F)cc1 (centres undefined)	-0.8	4%	7	-6%	0	?	13%
CN(C)CCCNC(=O)CCc1ncc(C(F)(F)F)cc1Cl	-0.8	12%	0	-2%[15.4 µM]	15	.	5%
C=CCNC(=S)Nc1ccc(C)c(S(=O)(=O)N2CCCCC2)c1	0.8	20%	-5	-1%[15.4 µM]	35	-0.6%	-3%
CC1=C(C(=O)N2CCCCC2)C2(CCC(C)CC2)OC1=O (centres undefined)	1.0	-9%	13	-69%	13	-1.6%	9%
O=C(Nc1ccccc1C(=O)NCc1cccnc1)c1ccc(Cl)cc1Cl	2.5	-4%	-4	-2%	-4	1.9%	-11%
COc1ccc(-c2nc(-c3ccccc3)c(-c3cc([N+](=O)[O-])ccc3C)[nH]2)cc1O	3.4	12%	-16	-21%	-1	-2.7%	-6%
CC(=O)NCCn1ccc2ccccc21	-0.3	8%	0	0%	-5	28µM*	-1%
COc1cc(Br)c(C(C)NC(=O)c2cccc(Br)c2)cc1OC (centres undefined)	-1.5	8%	-11	-15%	-2	-3.2%	?
Cc1cc2c(cc1C)C(c1ccccc1OC(C)C)CC(=O)N2 (centres undefined)	1.7	-5%	-15	-6%	-1	.	10%
CCNc1nc(NC#N)nc(SCC(=O)OCC)n1	1.2	20%	3	-31%[inhibitor]	-5	-0.6%	-1%
COc1ccc(C2C(C(=O)NCCN3CCOCC3)c3ccccc3C(=O)N2C)cc1OC (centres undefined)	0.0	22%	0	31%	-8	-2.0%	15%
C=CCn1c(=O)/c(=C/c2ccc(Cl)cc2)s/c1=C(\C#N)c1nnc2n1CCCCC2	.	.	.	4%	0	0.6%	-12%
COCCCn1c(=O)c2ccccc2n(Cc2ccccc2)c1=O	-5.8	-19%	12	0%	-2	-22%	-2%
CCCCn1c(SCn2nnc3ccccc3c2=O)nc2cc(C(=O)OC)ccc2c1=O	-1.7	12%	-4	.	.	.	.
O=C(NCc1cccs1)C1CCCN(C(=O)Nc2ccccc2)C1 (centres undefined)	-1.6	5%	-3	14%	44	.	11%
COc1ccc(CCNC(=O)CN2CCC(C)CC2)cc1OC	1.8	-5%	5	8%	-5	-4.4%	0%
Cc1nc(-c2cccc(N)c2)cs1	-0.4	34%[activator]	5	22%	35	-5.8%	5%
O=C(c1cc2ccccc2cc1O)N1CCN(c2ccccc2O)CC1	.	.	?	-24%[15.4 µM]	24	.	-10%
COc1cccc(C(=O)N2CCN(Cc3ccccn3)CC2)c1	-5.5	45µM*	3	16%	?	-0.2%	12%
CN(Cc1ccccc1)C(=O)c1ccc(NC(=O)Cc2ccc(NC(=O)C3CCCN(C(=O)C4CC4)C3)cc2)cc1 (centres undefined)	.	.	.	.	-11	-1.3%	-8%
Cc1cc2oc(C(=O)N3CCN(CCc4ccccn4)CC3)c(C)c2cc1C	.	-7%	7	2%	5	0.3%	4%
O=C(/C=C/c1ccccc1Cl)NCCc1ccc(F)cc1	-2.1	-6%	-11	-3%	-3	-7.5%	-1%
CCC1=NN(S(=O)(=O)c2ccc(C)cc2)C(O)(C(F)(F)F)C1 (centres undefined)	3.1	16%	8	4%[15.4 µM]	-1	.	12%
CC(Sc1ccccn1)C(=O)Nc1ccccc1 (centres undefined)	0.9	-14%	-10	-19%	12	-1.4%	7%
COc1ccc(N(CC(=O)Nc2ccccc2C(=O)O)S(=O)(=O)c2ccc(C)c([N+](=O)[O-])c2)cc1	0.8	12%	1	-8%[15.4 µM]	20	.	.
O=C(COC(=O)/C=C/c1ccc2c(c1)OCO2)NC1CC1	3.6	1%	0	-43%	0	4.1%	7%
COc1ccc(N2Cc3ccccc3C2=NC(=O)c2cccc([N+](=O)[O-])c2)cc1	1.5	4%	-3	-33%[inhibitor]	-1	0.4%	8%
O=C(CCC(=O)N1CCOc2ccccc21)NCc1cccnc1	0.9	12%	-7	-32%	-3	-1.3%	6%
Cc1ccccc1C(=O)Nc1nnc(S(=O)(=O)N2CCCCCC2)s1	-4.3	21%	-1	-4%	-3&-9	-7.2%&-1.7%	-7%
COc1ccc(NC(=O)C2CCCN(S(=O)(=O)c3ccc4c(c3)CC(C)N4C(C)=O)C2)cc1 (centres undefined)	3.6	10%	1	?	-17	0.1%	?
Cc1ccc(C2NC(c3ccc(C)cc3)C(C)C(=NO)C2C)cc1 (centres undefined)	3.1	5%	.	-24%	-4	0.1%	4%
C=CCNc1sc(C(=O)c2ccc(Br)s2)c(N)c1C#N	?	-5%	-3	?	-7	1.5%	18%
O=C(CSc1nnc(-c2ccccc2)o1)NC1CCCC1	.	.	-2	-37%[inhibitor]	-29	0.9%	8%
O=C(Cc1ccc(NC(=O)C2CCN(C(=O)C3CCCCC3)CC2)cc1)Nc1ccc(C(=O)N2CCOCC2)cc1	.	.	.	.	18	-0.9%	8%
COc1ccc(-c2[nH]ncc2CN2CCCCCCC2)c(OC)c1	-0.7	3%	-2	-7%[15.4 µM]	12	1.8%	11%
O=C(CNC(=O)c1ccc(OC(F)F)cc1)NCc1ccccn1	.	.	-1	-29%	23	-1.6%	0%
COc1ccc(NC(=O)C(=O)NCc2ccncc2)c(OC)c1	-0.3	2%	-5	?	2	-2.1%	7%
CC(=O)C1=C(O)CC(C)(C)CC1=NCc1nc2ccccc2[nH]1	5.4	13%	3	6%	-4	.	2%
Cn1c(SCCOc2ccc(Cl)cc2)nnc1-c1ccncc1	-8.6	5%	-5	1%	-6	-1.3%	-6%
CCCc1cc(C(=O)Nc2sc3c(c2C#N)CCC3)no1	1.9	50µM*	-14	2%	-8	1.0%	4%
C=CCNCCCOc1ccc(C)cc1Br	3.4	9%	-2	-8%[15.4 µM]	-13	-0.6%	22%
CC(=O)Nc1ccc(/C=C(\C#N)S(=O)(=O)c2ccc(C)cc2)cc1	.	.	.	-20%	-7	.	-16%
CC(C)OC(=O)c1cccc(-c2ccc(C=O)o2)c1	22	?	?	0%	7	-1.2%	-14%
Cc1ccc(/C=N/n2c(C)nc3ccccc3c2=O)s1	0.2	23%	-10	.	.	.	.
COc1ccc(CCNC(=O)c2cnc3scc(C)n3c2=O)cc1OC	1.8	3%	-6	?	-8	4.7%	18%
O=C(NC(=S)Nc1cc(C(F)(F)F)ccc1N1CCOCC1)c1sc2ccccc2c1Cl	-2.0	-9%	10	-17%	-10	-0.9%	12%
O=C(c1cc(=O)c2ccccc2o1)N1CCCc2ccccc21	0.7	8%	-2	0%	-3	-0.1%	-2%
O=C(Nc1cccc(Cl)c1)C1CCN(C(=O)c2cccs2)CC1	0.3	-3%	-7	-3%[15.4 µM]	-19	.	-6%
Cc1ccc(-c2ccc(S(=O)(=O)N3CCN(C)CC3)cc2)cc1	-3.8	-12%	16	-43%[inhibitor]	1	-3.2%	12%

Random excerpt: two records from the list, in no set order.
SMILES	Menin MLL FP FL	Sfp inh	TRPV1 PAM	gsp ag	TRPML1 inh	ClpP mod	gsp antag
O=C(Cc1ccc(NC(=O)C2CCN(C(=O)C3CCCCC3)CC2)cc1)Nc1ccc(C(=O)N2CCOCC2)cc1	.	.	.	.	18	-0.9%	8%
Cc1ccc(C2NC(c3ccc(C)cc3)C(C)C(=NO)C2C)cc1 (centres undefined)	3.1	5%	.	-24%	-4	0.1%	4%

Five compounds already listed, sorted by heavy-atom count, ascending:
SMILES	Menin MLL FP FL	Sfp inh	TRPV1 PAM	gsp ag	TRPML1 inh	ClpP mod	gsp antag
C=CCNc1sc(C(=O)c2ccc(Br)s2)c(N)c1C#N	?	-5%	-3	?	-7	1.5%	18%
CCCc1cc(C(=O)Nc2sc3c(c2C#N)CCC3)no1	1.9	50µM*	-14	2%	-8	1.0%	4%
Cc1ccc(-c2ccc(S(=O)(=O)N3CCN(C)CC3)cc2)cc1	-3.8	-12%	16	-43%[inhibitor]	1	-3.2%	12%
COc1ccc(-c2[nH]ncc2CN2CCCCCCC2)c(OC)c1	-0.7	3%	-2	-7%[15.4 µM]	12	1.8%	11%
COc1ccc(CCNC(=O)c2cnc3scc(C)n3c2=O)cc1OC	1.8	3%	-6	?	-8	4.7%	18%
